# TRPC4 act = TRPC4 (mouse) channel activation | AID 2237 | HEK293 TRPC4beta/mu-opioid, Fluo4 calcium fluorescence; active compounds read high | 310,000 tested, 0.49% active | B-score at 10 µM;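 active = B-score above 5 SD of library B-scores, and initial fluorescence ratio not above library mean plus 5 SD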;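 note: positive B-score marks a calcium rise read as TRPC4 activation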
# Target sequence (Q9QUQ5 whole entry, looked up): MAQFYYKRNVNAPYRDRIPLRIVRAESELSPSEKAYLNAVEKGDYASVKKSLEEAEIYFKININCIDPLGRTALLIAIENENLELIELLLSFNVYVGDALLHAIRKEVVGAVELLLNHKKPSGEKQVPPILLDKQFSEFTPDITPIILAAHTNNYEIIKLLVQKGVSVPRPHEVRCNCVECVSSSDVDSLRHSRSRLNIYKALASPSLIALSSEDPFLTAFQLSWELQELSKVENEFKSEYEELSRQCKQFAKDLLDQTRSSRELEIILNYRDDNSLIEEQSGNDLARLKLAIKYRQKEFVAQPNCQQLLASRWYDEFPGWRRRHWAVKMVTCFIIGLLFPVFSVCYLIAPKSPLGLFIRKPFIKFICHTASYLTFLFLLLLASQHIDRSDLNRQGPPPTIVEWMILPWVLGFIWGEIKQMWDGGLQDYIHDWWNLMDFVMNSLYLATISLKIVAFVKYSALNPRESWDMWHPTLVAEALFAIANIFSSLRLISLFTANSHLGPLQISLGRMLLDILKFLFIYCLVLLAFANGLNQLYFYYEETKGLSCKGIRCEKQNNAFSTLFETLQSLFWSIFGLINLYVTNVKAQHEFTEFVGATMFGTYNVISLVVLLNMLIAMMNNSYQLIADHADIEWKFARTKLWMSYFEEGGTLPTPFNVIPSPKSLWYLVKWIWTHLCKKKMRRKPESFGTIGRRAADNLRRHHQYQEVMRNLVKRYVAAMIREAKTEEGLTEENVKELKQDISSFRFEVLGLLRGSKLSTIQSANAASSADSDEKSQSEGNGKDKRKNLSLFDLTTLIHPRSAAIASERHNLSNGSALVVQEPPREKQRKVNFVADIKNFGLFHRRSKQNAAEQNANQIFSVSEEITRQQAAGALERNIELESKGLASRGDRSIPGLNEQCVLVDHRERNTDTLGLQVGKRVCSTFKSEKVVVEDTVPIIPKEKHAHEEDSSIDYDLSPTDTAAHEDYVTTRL
#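 Assay system: HEK293 stable line with TRPC4beta plus mu-opioid receptor; schedule: 45 min room-temperature Fluo4 loading, 110 s read; technique: kinetic Fluo4 calcium fluorescence; evaluation: integrated baseline-normalised fluorescence ratio, converted to per-well B score; controls: buffer (low) and maximal DAMGO (high)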
# MrgX1 antag = blocks BAM8-22 activation of human MrgX1 receptor. MRGX1-HEK293 calcium flux, Fluo-4, BAM8-22 antagonism; active compounds read low. B-score at 10 µM. 310,000 tested, 1.3% active. AID 588676;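 active = calcium-response B-score plate-corrected more than 3 library SD below zero, starting fluorescence within 5 deviations, no agonist response on first addition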;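 note: peak minus trough fluorescence over baseline after final BAM8-22 challenge near maximal dose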
# SKKanGAS inh = SKKanGAS growth inhibition; S. pyogenes SKKanGAS, kanamycin growth, BacTiter-Glo, 6 h; inhibition, % at 7.5 µM; 300,000 tested, 1.3% active;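 active = mean replicate score, as percent of positive control median, at least 50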;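 note: strain carries kanamycin resistance gene driven by streptokinase promoter and grows in 40 µg/ml kanamycin; loss of luminescence reflects streptokinase promoter inhibition or plain growth inhibition; 0% = median of DMSO wells and 100% = positive control at its reference dose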
# KLF5 inh = kruppel-like factor 5 inhibition | DLD-1 KLF5 promoter-luciferase reporter, luminescence | inhibition, % at 5 µM | 290,000 tested, 0.23% active | AID 1700;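 active = inhibition above a per-plate limit of that plate's mean compound inhibition plus 3 SD, cut at about 60% in these data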;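 note: 0% = DMSO wells and 100% = LY294002 at 200 µM; higher means less KLF5 promoter-driven luciferase light; inactives centre near -14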
# TRPC6 inh = inhibitors of mouse TRPC6 channel; Q61143; 310,000 tested, 1.1% active; B-score at 10 µM; HEK293-TRPC6, membrane potential dye, ACh-evoked depolarization; active compounds read low;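 active = B-score under library mean minus 3 SD, initial fluorescence not abnormally high, positive integrated signal ratio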;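 note: B-score derived from integrated fluorescence ratio over the kinetic read; more negative B-score means stronger inhibition of depolarization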
# TRPC4 inh = inhibitors of mouse TRPC4 channel; Q9QUQ5; AID 2247; HEK293 TRPC4beta/mu-opioid, DAMGO-evoked Fluo4 calcium flux; active compounds read low; 300,000 tested, 0.39% active; B-score at 10 µM;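 active = B-score over 3 SD under the library average, no early fluorescence shift, positive overall ratio signal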
#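 Assay system: HEK293 cells with stable TRPC4beta plus mu-opioid receptor expression; Probe or stimulus: DAMGO in two steps, submaximal then maximal; Dosing: single-point compound dosing; Measured by: Fluo4 calcium-dye fluorescence, kinetic read; Read-out basis: B score from integrated Fluo4 fluorescence ratio.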
# TRPC4 potent = allosteric potentiators of mouse TRPC4 channel | Q9QUQ5 | HEK293 TRPC4beta/mu-opioid, DAMGO EC20, Fluo-4 Ca2+ flux; active compounds read high | B-score at 10 µM | 310,000 tested, 0.42% active;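 active = B-score of calcium response area above 5 SD of library B-scores, with initial fluorescence ratio within 5 SD of library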;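 note: B-score of integrated fluorescence ratio over time as area under calcium response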
# TRPC6 act = mouse TRPC6 channel activation; 310,000 tested, 0.13% active; HEK293-TRPC6 membrane potential dye fluorescence; active compounds read high; AID 2550; B-score at 10 µM;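 active = B-score of the integrated fluorescence ratio above library mean plus 3 SD, and starting fluorescence ratio within library mean plus 5 SD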;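 note: higher score means more depolarization so channel activation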
# aSyn 5UTR inh = MLPCN primary screen, SNCA 5' untranslated region; alpha-synuclein 5'UTR reporter, inhibitor activity; inhibition, % (tested at 7.5 µM); 300,000 tested, 0.82% active; in the data active = inhibition above about 60%;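 note: H4 neuroglioblastoma cells stably carrying SNCA 5'UTR luciferase fusion; 0% = DMSO wells and 100% = positive control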
# IEC-6 tox = kills IEC-6 intestinal cells in KLF5 counter-screen; IEC-6 cytotoxicity, luminescence viability; inhibition, % at 5 µM; 290,000 tested, 0.78% active; AID 1825; in the data active = inhibition above about 22%;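 note: 0% = plate median of test compound wells and 100% = cytotoxic reference compound wells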
# Starred values were filed as active, the others as inactive; i = inactive; . = no result given; & = joins results of further samples.
# Under each structure: TRPC4 act	MrgX1 antag	SKKanGAS inh	KLF5 inh	TRPC6 inh	TRPC4 inh	TRPC4 potent	TRPC6 act	aSyn 5UTR inh	IEC-6 tox
> CCCCC(=O)c1c(C)cc(C)[nH]c1=O
  i	i	-1	-30	i	i	i	i	-4	0
> CCOC(=O)C1(c2nc(N)cs2)COC(=O)C1 (centres undefined)
  i	i	-1	16	i	i	i	i	-6	1
> CSc1nc(N)nc(SCC(=O)C23CC4CC(CC(C4)C2)C3)c1C#N
  i	i	0	-8	i	i	i	i	-15	-5
> COC(=O)CSc1nc(C)c(C(C)=O)cc1C#N
  i	i	-3	-23	i	i	i	i	-36	1
> NCCCC[C@H](N[C@@H](CCc1ccccc1)C(=O)O)C(=O)N1CCC[C@H]1C(=O)O
  i	i	-2	-12	i	i	i	i	6	-3
> COC(=O)CN(c1cc(OC)ccc1OC)S(=O)(=O)c1ccc(OC)c(OC)c1
  i	i	-2	-11	i	i	i	i	15	0
> Cc1cc2c(c(=O)n1Cc1cccnc1)C(c1ccccc1)C(C#N)=C(N)O2 (centres undefined)
  i	i	3	-3	i	i	i	i	2	-2
> Nc1nnc(CC2=CCCCC2)s1
  i	i	11	-37	i	i	i	i	18	-3
> Cc1ccc(C#N)c(SCc2cc3c(cc2Cl)OCO3)n1
  i	i	-2	-2	i	i	i	i	-9	-2
> COc1ccc2[nH]c(C)c(C(=O)CN3CCc4cc(OC)c(OC)cc4C3)c2c1
  i	i	0	-15	i	i	i	i	2	4
> CCCc1cc(NCCCCO)n2c(nc3ccccc32)c1C#N
  i	i	9	-37	i	i	i	i	39	-1
> COc1ccc2c(c1)[nH]c1c(=O)n(CCN(C)C)cnc12
  i	i	-2	-18	i	i	i	i	-7	3
> Nc1nnc(CSCc2ccc(F)cc2)s1
  i	i	-11	-8	i	i	i	i	30	3
> O=C(CCCN1C(=O)c2ccccc2C1=O)N1CCC(c2ccccc2)C1 (centres undefined)
  i	i	-9	-11	i	i	i	i	17	-5
> Cc1cc(=O)n2[nH]cnc2n1
  i	i	-6	-20	i	i	i	i	-18	-9
> C(=N\n1cnnc1)/c1cccc(Oc2ccccc2)c1
  i	i	-9	0	i	i	i	i	18	-2
> C/C(=C\C(=O)O)CC(=O)O
  i	i	1	-7	i	i	i	i	-4	5
> C[C@H]1C[C@@H]2[C@H]([C@@H](O)C[C@@]3(C)[C@H]2CC[C@]3(O)C(=O)CO)[C@@]2(C)C=CC(=O)C=C12
  i	i	1	-7	i	i	i	i	17	14
> CCN(CC)CCCN1C(=O)C(=O)/C(=C(/O)c2ccc(Cl)cc2)C1c1ccccn1 (centres undefined)
  i	i	4	.	i	i	i	i	-1	.
> O=C(O)C1CCCNC1 (centres undefined)
  i	i	2	-18	i	i	i	i	-10	-5

# 4 entries from above, sorted by formula weight, ascending:
# Under each structure: TRPC4 act	MrgX1 antag	SKKanGAS inh	KLF5 inh	TRPC6 inh	TRPC4 inh	TRPC4 potent	TRPC6 act	aSyn 5UTR inh	IEC-6 tox
> C/C(=C\C(=O)O)CC(=O)O
  i	i	1	-7	i	i	i	i	-4	5
> Cc1cc(=O)n2[nH]cnc2n1
  i	i	-6	-20	i	i	i	i	-18	-9
> C(=N\n1cnnc1)/c1cccc(Oc2ccccc2)c1
  i	i	-9	0	i	i	i	i	18	-2
> CCN(CC)CCCN1C(=O)C(=O)/C(=C(/O)c2ccc(Cl)cc2)C1c1ccccn1 (centres undefined)
  i	i	4	.	i	i	i	i	-1	.

# (cont.)
# Under each structure: TRPC4 act	MrgX1 antag	SKKanGAS inh	KLF5 inh	TRPC6 inh	TRPC4 inh	TRPC4 potent	TRPC6 act	aSyn 5UTR inh	IEC-6 tox
> CC1(C)Cc2c(C#N)c(N3CCN(C(=O)c4ccco4)CC3)nc(-c3ccco3)c2CS1
  i	i	13	-40	i	i	i	i	25	-2
> CC(C)OC(=O)CC(NC(=O)OC(C)(C)C)c1ccccc1 (centres undefined)
  i	i	3	-15	i	i	i	i	5	-2
> CNC(=O)c1cc2c(cn1)[nH]c1ccccc12
  i	i	-8	.	i	i	i	i	-98	.
> Cc1cc(CCC(=O)O)c(C)cc1CCC(=O)O
  i	i	6	21	i	i	i	i	5	-2
> Fc1ccc2[nH]c3c(N4CCN(c5ccccc5)CC4)ncnc3c2c1
  i	i	27	-42	i	i	i	i	8	-8
> COC(=O)c1ccc(C2/C(=C(\O)c3ccc(OC)c(C)c3)C(=O)C(=O)N2c2cc(C)on2)cc1 (centres undefined)
  i	i	17	-24	i	i	i	i	1	-6
> COc1cccc(C2/C(=C(/O)c3ccc(C)cc3)C(=O)C(=O)N2Cc2ccco2)c1 (centres undefined)
  i	i	12	0	i	i	i	i	8	2
> O=C(Nc1ncccc1Cl)c1cccc(F)c1
  i	i	1	-16	i	i	i	i	20	0
> CCCN(CCc1ccccc1)C1CCc2c(O)cccc2C1 (centres undefined)
  i	i	0	.	i	i	i	17*	-30	.
> CC(C)CN1C(=O)c2ccc(C(=O)Nc3ccccn3)cc2C1=O
  i	i	8	-11	i	i	i	i	-19	1
> COC(=O)C/C=C/[C@@H](C)[C@@H](/C=N/OC[C@H]1O[C@H](c2ccccc2)C=C[C@@H]1Oc1ccc(OC)cc1)NS(=O)(=O)c1ccc(C)cc1
  i	.	9	3	i	i	i	i	11	1
> CCOC(=O)COc1ccc(Oc2nc(C)cc(OC)n2)nn1
  i	i	3	-7	i	i	i	i	-5	7
> CC(NCCC(c1ccccc1)c1ccccc1)c1ccccc1 (centres undefined)
  i	i	2	-19	i	i	i	i	-2	2
> CC1CN(C2CCN(C(=O)c3ccccc3Cl)CC2)CC(C)O1 (centres undefined)
  i	i	3	-26	i	i	i	i	7	1
> Nc1nnnn1/N=C/c1ccccn1
  i	i	-5	-11	i	i	i	i	-22	1
> Cc1nn(C)cc1CNC(=O)c1ccc(Br)o1
  i	i	-9	-14	i	.	i	i	-13	-6
> O=C(CCN1CCc2ccccc21)c1ccc2c(c1)OCCO2
  i	i	4	-8	i	i	i	i	-155	8
> O=C(O)C1=CCCNC1
  i	i	-8	.	i	i	i	i	-15	.
> Cn1c(=O)n(CCC(=O)O)c2ccccc21
  i	i	4	-17	i	i	i	i	18	-3
> CC(C)C(=O)c1c(C(C)C)nn2ccccc12
  i	i	5	.	i	i	i	i	30	.
> CCn1c(SCC(=O)NCc2ccco2)nnc1-c1ccc(N)cc1
  i	i	1	3	i	i	i	i	5	4
> O=C(O)CCCCC1SCC2NC(=O)NC21 (centres undefined)
  i	i	-2	-10&-17	i	i	i	i	9	1&-1
> CCCOC(=O)CSC1=C(C#N)C(c2ccccc2OC)C(C#N)C(=O)N1 (centres undefined)
  i	i	6	-5	i	i	i	i	-1	-6
> COC(=O)CSc1nc2c(c(=O)n(C)c(=O)n2C)n1CCC(C)C
  i	i	-8	.	i	i	i	i	9	.
> C=C(C)CSC1=C(C#N)C(c2ccsc2)CC(=O)N1 (centres undefined)
  i	i	.	-18	i	i	i	i	5	1
> COc1cc(C(=O)Nc2ccc(O)cc2C(=O)O)ccc1OC(C)=O
  i	i	-2	-11	i	i	i	i	-1	3
> Cc1ccc(S(=O)(=O)N2CCC(N3CCCCCC3)CC2)cc1
  i	i	2	-7	i	i	i	i	-25	-3
> CCN(CC)CCOC(=O)C1(c2ccc(OC)c(OC)c2)CCCC1
  i	i	-3	4	i	i	i	i	9	0
> O=C(NCCC1=CCCCC1)c1ccc(=O)oc1
  i	i	-6	-18	i	i	i	i	-18	1
> COc1cccc([C@@H]2Oc3ccc(OC)cc3C(=O)[C@H]2O)c1
  i	i	0	-176	i	i	i	i	-138	6
> NC(CS(=O)O)C(=O)O (centres undefined)
  i	i	0	.	i	i	i	i	8	.
> O=C1CCC(=O)N1CN(C(=O)c1ccco1)c1ccc(Cl)c(Cl)c1
  i	i	2	-19	i	i	i	i	-10	4
> N#Cc1nc(-c2cccs2)oc1NCCN1CCOCC1
  i	i	1	-13	i	i	i	i	16	3
> Cc1cc(=O)oc2cc(OCCSCCN3CCOCC3)ccc12
  i	i	4	0	i	i	i	i	-23	-2
> O=C(O)CC1SC(=Nc2cccc(C(F)(F)F)c2)NC1=O (centres undefined)
  i	i	-2	5	i	i	i	i	-5	5
> CN=c1sc2ccccc2n1CC(O)COCc1ccco1 (centres undefined)
  i	i	6	22	i	i	i	i	14	4
> CCCCCC(=O)N1CC2(CC)CN(C(=O)CCCCC)CC(CC)(C1)C2=O
  i	i	-1	-1	i	i	i	i	-12	-1
> Oc1cc(O)c2c(c1)O[C@H](c1ccc(O)c(O)c1)[C@@H](O)C2
  i	i	-2	.	i	i	i	i	3	.
> COC(=O)CC1=C(C(=O)OC)C(c2ccc3c(c2Cl)OCO3)C(C#N)=C(N)O1 (centres undefined)
  i	i	-10	4	i	.	i	i	-30	0
> CC1(C2(O)CC(c3ccccc3)ON2)CCCCC1 (centres undefined)
  i	i	6	0	i	i	i	i	-47	-1
> CC[C@H]1OC(=O)[C@H](C)[C@@H](O[C@H]2C[C@@](C)(OC)[C@@H](O)[C@H](C)O2)[C@H](C)[C@@H](O[C@@H]2O[C@H](C)C[C@H](N(C)C)[C@H]2O)[C@](C)(O)C[C@@H](C)[C@@H]2N[C@@H](COCCOC)O[C@H]([C@H]2C)[C@]1(C)O
  i	i	106*	11	i	i	i	i	-7	1
> CCC(=O)Nc1ccc(-c2nnc(SCC(=O)NCC3CCCO3)n2C)cc1 (centres undefined)
  i	i	-3	7	i	i	i	i	11	-1
> Oc1oc(-c2ccccc2)nc1C=NCc1ccncc1
  i	i	3	-36	i	i	i	i	-10	4
> O=C1C(=O)N(Cc2cccnc2)C(c2ccccn2)/C1=C(/O)c1ccc(Br)cc1 (centres undefined)
  i	i	1	9	i	i	i	i	6	-4
> Clc1ccccc1CN(Cc1ccccc1)c1ncnc2nc[nH]c12
  i	i	51*	-53	i	i	i	i	8	-3

# Looked up by structure from above:
# Under each structure: TRPC4 act	MrgX1 antag	SKKanGAS inh	KLF5 inh	TRPC6 inh	TRPC4 inh	TRPC4 potent	TRPC6 act	aSyn 5UTR inh	IEC-6 tox
> Clc1ccccc1CN(Cc1ccccc1)c1ncnc2nc[nH]c12
  i	i	51*	-53	i	i	i	i	8	-3
> O=C1C(=O)N(Cc2cccnc2)C(c2ccccn2)/C1=C(/O)c1ccc(Br)cc1 (centres undefined)
  i	i	1	9	i	i	i	i	6	-4
> CC[C@H]1OC(=O)[C@H](C)[C@@H](O[C@H]2C[C@@](C)(OC)[C@@H](O)[C@H](C)O2)[C@H](C)[C@@H](O[C@@H]2O[C@H](C)C[C@H](N(C)C)[C@H]2O)[C@](C)(O)C[C@@H](C)[C@@H]2N[C@@H](COCCOC)O[C@H]([C@H]2C)[C@]1(C)O
  i	i	106*	11	i	i	i	i	-7	1
> Oc1oc(-c2ccccc2)nc1C=NCc1ccncc1
  i	i	3	-36	i	i	i	i	-10	4

# Screening data from PubChem BioAssay.

# Only part of the results is shown, so the mix of outcomes need not match the whole.
